Screens deposited in PubChem BioAssay by Broad Institute.
HIV Env fusion = inhibitors of HIV-1 Env-driven cell-cell fusion, primary screen, HeLa-JRFL effector, CEM21 target cells, luciferase; inhibition, % at 12.3 µM; 360,000 compounds, 1.1% hits; AID 651610, 2012;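 active = mean replicate inhibition score of at least 50 and every replicate individually at or above 50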;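 also: 0% = plate neutral controls and 100% = maraviroc near 300 nM; one replicate is shown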
Yeast UUG start = modulators of yeast start codon fidelity, primary screen, whole organism, S. cerevisiae, single point, plate reader | S. cerevisiae UUG-firefly luciferase reporter, luminescence/redox ratio | activity score, % at 18.7 µM | 350,000 compounds, 0.13% hits | AID 602363, 2012;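 active = replicate mean at a twofold rise or more, about +100% in these data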;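 also: firefly luciferase made from a UUG start codon reports start codon fidelity; reporter light over untreated wells divided by growth signal over untreated wells; some hits fall short of that in this replicate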
Active calls of the source: *; [ ] = remark or other dose. These rows are one share of the data (hit frequency here may not be typical).

Structure	HIV Env fusion	Yeast UUG start
COc1ccc(NC(=O)Nc2ccc3c(c2)C(=O)N([C@@H](C)CO)C[C@H](C)[C@H](CN(C)Cc2ccc(C(=O)O)cc2)OCCCC[C@@H](C)O3)cc1	38.1[16.7 µM]	47.0
CO[C@@H]1CN(C)C(=O)c2ccc(NC(C)=O)cc2OC[C@H](C)N(CC2CC2)C[C@H]1C	-2.5[16.7 µM]	0.5
Cc1noc(C)c1S(=O)(=O)Nc1ccc2c(c1)C(=O)N([C@H](C)CO)C[C@@H](C)[C@H](CN(C)S(=O)(=O)c1cn(C)cn1)OCCCC[C@@H](C)O2	23.0[16.7 µM]	0.9
CC(C)NC(=O)Nc1ccc2c(c1)C(=O)N([C@H](C)CO)C[C@@H](C)[C@H](CN(C)S(=O)(=O)c1ccccc1)OCCCC[C@H](C)O2	-9.9[16.7 µM]	6.6
COCC(=O)Nc1ccc2c(c1)C(=O)N(C)[C@H]1CC[C@H](CC(=O)Nc3ccccc3)O[C@@H]1CO2	-24.5[16.7 µM]	-11.7
C[C@H]1CN([C@@H](C)CO)S(=O)(=O)c2ccc(C#CC3CCCCC3)cc2O[C@H]1CN(C)C	0.1[16.7 µM]	-1.0
CN(C)CC(=O)Nc1ccc2c(c1)[C@@H]1C[C@@H](CC(=O)NCc3cccc(F)c3)O[C@H](CO)[C@@H]1O2	1.9[16.7 µM]	5.0
C/C=C/c1ccc2c(c1)O[C@@H](CN(C)C(=O)c1ccc3c(c1)OCO3)[C@@H](C)CN([C@H](C)CO)S2(=O)=O	-2.6[16.7 µM]	31.9
COc1ccccc1CN1C[C@@H](C)[C@H](OC)CN(C)C(=O)c2ccc(NC(C)=O)cc2OC[C@@H]1C	-15.0[16.7 µM]	-3.2
CNC[C@@H]1Oc2ccc(NC(=O)Nc3ccc(OC)cc3)cc2CC(=O)N([C@H](C)CO)C[C@H]1C	17.1[16.7 µM]	1.8
C[C@@H]1CN([C@H](C)CO)C(=O)c2cc(C#CCN(C)C)cnc2O[C@@H]1CN(C)S(C)(=O)=O	-11.5[16.7 µM]	9.9
CN1C(=O)c2cc(NS(=O)(=O)c3ccccc3Cl)ccc2OC[C@@H]2O[C@@H](CC(=O)O)CC[C@@H]21	-3.2[16.7 µM]	-14.0
COCC#Cc1cnc2c(c1)C(=O)N([C@H](C)CO)C[C@@H](C)[C@@H](CN(C)S(=O)(=O)c1cn(C)cn1)O2	-19.8[16.7 µM]	-5.0
Cc1noc(C)c1NC(=O)Nc1ccc2c(c1)CC(=O)N([C@H](C)CO)C[C@H](C)[C@H](CN(C)C(=O)Nc1c(C)noc1C)O2	-1.5[16.7 µM]	-8.1
C[C@H](NC(=O)C[C@H]1CC[C@@H]2[C@H](COC[C@@H](O)CN2Cc2ccc(C(F)(F)F)cc2)O1)c1ccccc1	1.9[16.7 µM]	1.6
Cc1ccc(S(=O)(=O)NCC[C@@H]2CC[C@H](NC(=O)C3CCOCC3)[C@H](CO)O2)cc1	-10.5[16.7 µM]	5.9
CC(=O)N(C)C[C@H]1Oc2ncc(-c3cccc(C#N)c3)cc2C(=O)N([C@@H](C)CO)C[C@H]1C	11.6[16.7 µM]	-2.6
C[C@H](CO)N1C[C@H](C)[C@@H](CN(C)S(C)(=O)=O)Oc2cc(-c3ccccc3)ccc2S1(=O)=O	26.8[16.7 µM]	21.1
Cc1noc(C)c1NC(=O)Nc1ccc2c(c1)C(=O)N([C@@H](C)CO)C[C@@H](C)[C@H](CN(C)Cc1ccccc1)OCCCC[C@@H](C)O2	6.2[16.7 µM]	7.4
COCC(=O)N(C)C[C@H]1Oc2cc(C3=CCCC3)ccc2S(=O)(=O)N([C@@H](C)CO)C[C@@H]1C	-2.4[16.7 µM]	-10.3

Structural class, those above containing a halogen (3)
Structure	HIV Env fusion	Yeast UUG start
CN(C)CC(=O)Nc1ccc2c(c1)[C@@H]1C[C@@H](CC(=O)NCc3cccc(F)c3)O[C@H](CO)[C@@H]1O2	1.9[16.7 µM]	5.0
CN1C(=O)c2cc(NS(=O)(=O)c3ccccc3Cl)ccc2OC[C@@H]2O[C@@H](CC(=O)O)CC[C@@H]21	-3.2[16.7 µM]	-14.0
C[C@H](NC(=O)C[C@H]1CC[C@@H]2[C@H](COC[C@@H](O)CN2Cc2ccc(C(F)(F)F)cc2)O1)c1ccccc1	1.9[16.7 µM]	1.6

Continued:
Structure	HIV Env fusion	Yeast UUG start
Cc1ccc(S(=O)(=O)N(C)C[C@H]2OCCCC[C@H](C)Oc3ccc(NC(=O)CCC(F)(F)F)cc3C(=O)N([C@H](C)CO)C[C@H]2C)cc1	-3.7[16.7 µM]	-1.4
COc1ccc(NC(=O)N[C@H]2CC[C@H](CCNC(=O)CN3CCOCC3)O[C@@H]2CO)cc1	-3.1[16.7 µM]	2.2
CCc1cnc(N2[C@H](CO)[C@@H](c3ccccc3)[C@@H]2C#N)s1	27.7[16.7 µM]	5.3
C[C@@H]1CCCCO[C@@H](CN(C)C(=O)Nc2cccc3ccccc23)[C@H](C)CN([C@H](C)CO)C(=O)c2cc(NC(=O)c3ccccc3)ccc2O1	-28.5[16.7 µM]	-7.4
C[C@@H]1CN([C@H](C)CO)C(=O)c2cc(C#CCc3ccccc3)cnc2O[C@H]1CN(C)Cc1cccc(C(=O)O)c1	15.3[16.7 µM]	4.6
COc1cccc(-c2cn(CC[C@H]3CC[C@@H](NC(C)=O)[C@@H](CO)O3)nn2)c1	19.1[16.7 µM]	0.1
COc1ccccc1-c1cn(CC[C@@H]2CC[C@@H](NC(=O)C3CCOCC3)[C@@H](CO)O2)nn1	6.7[16.7 µM]	-4.6
C[C@@H]1CCCCO[C@@H](CN(C)Cc2ccc(C(F)(F)F)cc2)[C@@H](C)CN([C@@H](C)CO)C(=O)c2cc(NC(=O)Nc3ccc(F)cc3)ccc2O1	2.0[16.7 µM]	5.8
CCCC#Cc1cnc2c(c1)C(=O)N([C@H](C)CO)C[C@H](C)[C@@H](CN(C)C(=O)Cc1ccncc1)O2	-15.7[16.7 µM]	-9.7
Cc1ccc(S(=O)(=O)N[C@@H]2C=C[C@H](CC(=O)N3CCN(c4ccccc4)CC3)O[C@H]2CO)cc1	20.0[16.7 µM]	-6.3
COc1ccc(S(=O)(=O)Nc2ccc3c(c2)C(=O)N([C@H](C)CO)C[C@@H](C)[C@@H](CN(C)C(=O)c2ccncc2)OCCCC[C@H](C)O3)cc1	-11.0[16.7 µM]	-0.9
O=C(Cc1ccccn1)N[C@@H]1CC[C@H](CCNS(=O)(=O)c2cccc(F)c2)O[C@H]1CO	-9.6[16.7 µM]	-21.4
C[C@@H]1CN([C@@H](C)CO)C(=O)Cc2cc(NC(=O)C3CCCCC3)ccc2O[C@@H]1CN(C)Cc1ccc(C(F)(F)F)cc1	8.4[16.7 µM]	6.8
O=C1CS(=O)(=O)C(c2ccccc2)N1c1ccc(-c2ccccc2)cc1 (stereo not given)	-1.9[16.7 µM]	-11.4
CCC(=O)N[C@H]1CC[C@H](CCn2cc(-c3cccc(OC)c3)nn2)O[C@@H]1CO	15.3[16.7 µM]	-0.6
O=C(O)C[C@H]1CC[C@@H](NC(=O)c2ccccc2F)[C@H](CO)O1	-2.1[16.7 µM]	-13.1
CO[C@H]1CN(C)C(=O)c2cc(NC(C)=O)ccc2OC[C@H](C)N(Cc2cccc(F)c2)C[C@@H]1C	30.7[16.7 µM]	13.9
CCCNC(=O)C[C@@H]1CC[C@H]2[C@H](COc3ccc(NC(=O)c4cccc(C(F)(F)F)c4)cc3C(=O)N2C)O1	16.6[16.7 µM]	4.2
Cc1noc(C)c1NC(=O)N(C)C[C@@H]1OCCCC[C@H](C)Oc2ccc(NS(C)(=O)=O)cc2C(=O)N([C@@H](C)CO)C[C@@H]1C	-12.8[16.7 µM]	-3.4
COc1ccc(CN(C)C[C@@H]2OCCCC[C@@H](C)Oc3ccc(NC(=O)Nc4cccc5ccccc45)cc3C(=O)N([C@H](C)CO)C[C@H]2C)cc1	-13.2[16.7 µM]	15.8

Next section
Values run as follows: HIV Env fusion | Yeast UUG start
> C[C@H](CO)N1C[C@H](C)[C@H](CN(C)CC2CCCCC2)Oc2ccc(NC(=O)c3ccncc3)cc2C1=O
→ 17.2[16.7 µM] | -2.4
> C[C@@H]1CN([C@H](C)CO)C(=O)c2cc(C#Cc3ccccc3)cnc2O[C@H]1CN(C)C(=O)CN(C)C
→ 17.9[16.7 µM] | 0.3
> COc1ccccc1-c1cnc2c(c1)C(=O)N([C@@H](C)CO)C[C@H](C)[C@H](CN(C)Cc1ccc(C(=O)O)cc1)O2
→ -23.3[16.7 µM] | -1.1
> CNC[C@H]1Oc2ccc(NC(=O)Cc3cn(C)c4ccccc34)cc2C(=O)N([C@@H](C)CO)C[C@H]1C
→ 1.4[16.7 µM] | 13.7
> COc1ccc(CN(C)C[C@H]2OCCCC[C@H](C)Oc3ccc(NC(=O)NC4CCCCC4)cc3C(=O)N([C@@H](C)CO)C[C@H]2C)cc1
→ 5.7[16.7 µM] | 6.5
> CN1C(=O)c2cc(NC(=O)Cc3ccccc3)ccc2OC[C@H]2O[C@@H](CC(=O)O)CC[C@@H]21
→ 15.1[16.7 µM] | 17.1
> Cc1cccc(S(=O)(=O)N[C@H]2CC[C@H](CCNC(=O)Nc3cc(F)ccc3F)O[C@@H]2CO)c1
→ 6.2[16.7 µM] | -1.5
> COc1cccc(NC(=O)N(C)C[C@@H]2Oc3cc(-c4ccccc4F)ccc3S(=O)(=O)N([C@H](C)CO)C[C@H]2C)c1
→ -2.0[16.7 µM] | -1.3
> O=C(C[C@@H]1C=C[C@H](NC(=O)C2CCOCC2)[C@H](CO)O1)NCc1ccncc1
→ 8.6[16.7 µM] | -11.9
> Cc1ccccc1-c1ccc2c(c1)O[C@@H](CN(C)C(=O)c1ccccn1)[C@H](C)CN([C@H](C)CO)S2(=O)=O
→ 17.5[16.7 µM] | 6.7
> Cc1ccccc1-c1cnc2c(c1)C(=O)N([C@@H](C)CO)C[C@@H](C)[C@H](CN(C)CC1CCOCC1)O2
→ -9.8[16.7 µM] | 13.7
> CNC[C@@H]1Oc2cc(C#Cc3cccc(OC)c3)ccc2S(=O)(=O)N([C@H](C)CO)C[C@H]1C
→ -3.0[16.7 µM] | 13.3
> C[C@H](CO)N1C[C@H](C)[C@@H](CN(C)Cc2ccccc2)Oc2ccc(NC(=O)Nc3ccccc3)cc2C1=O
→ 6.4[16.7 µM] | 1.2
> COCC(=O)N(C)C[C@@H]1Oc2cc(-c3ccc(F)cc3)ccc2S(=O)(=O)N([C@@H](C)CO)C[C@H]1C
→ 8.2[16.7 µM] | -6.0
> C[C@@H]1CN([C@@H](C)CO)C(=O)c2cc(NC(=O)NC3CCCCC3)ccc2O[C@H]1CN(C)C(=O)Nc1ccc(F)cc1
→ -2.8[16.7 µM] | 18.2
> CC(=O)N(C)C[C@H]1Oc2cc(-c3ccccc3C)ccc2S(=O)(=O)N([C@@H](C)CO)C[C@H]1C
→ 21.7[16.7 µM] | 5.3
> C[C@@H]1CN([C@@H](C)CO)S(=O)(=O)c2ccc(C#CC3CCCC3)cc2O[C@@H]1CN(C)C
→ -94.5[16.7 µM] | 6.2
> C[C@@H]1CN([C@@H](C)CO)C(=O)c2cccc(NC(=O)c3ccc(-c4nccs4)cc3)c2O[C@@H]1CN(C)Cc1ccc(Cl)c(Cl)c1
→ -66.8[16.7 µM] | 3.9
> O=C(C[C@H]1CC[C@H](NC(=O)c2ccccc2)[C@@H](CO)O1)NCc1ccc(Oc2ccccc2)cc1
→ 22.6[16.7 µM] | -9.3
> C[C@H](CO)N1C[C@H](C)[C@@H](CN(C)C(=O)CN(C)C)Oc2cc(C#Cc3ccc(F)cc3)ccc2S1(=O)=O
→ 1.0[16.7 µM] | 6.7
> C[C@@H](NC(=O)C[C@@H]1CC[C@@H](NC(=O)CN2CCOCC2)[C@H](CO)O1)c1ccccc1
→ -19.0[16.7 µM] | -7.9
> C[C@@H]1CCCCO[C@@H](CN(C)C(=O)Nc2ccccc2)[C@@H](C)CN([C@H](C)CO)C(=O)c2cc(NS(=O)(=O)c3ccc(Cl)cc3)ccc2O1
→ -44.5[16.7 µM] | 4.5
> COc1ccc(S(=O)(=O)N(C)C[C@@H]2Oc3ccc(NC(=O)C4CC4)cc3CC(=O)N([C@H](C)CO)C[C@@H]2C)cc1
→ 15.8[16.7 µM] | 15.7
> C[C@@H]1CCCCO[C@H](CN(C)CC2CCCCC2)[C@H](C)CN([C@H](C)CO)C(=O)c2cc(NS(=O)(=O)c3ccc(Cl)cc3)ccc2O1
→ -13.0[16.7 µM] | 20.2
> CC(C)NC(=O)N[C@@H]1CC[C@H](CCNC(=O)C2CC2)O[C@H]1CO
→ 12.5[16.7 µM] | -5.6
> CN(C)CCCNC(=O)C[C@H]1C=C[C@H](NS(=O)(=O)c2ccc(F)cc2)[C@@H](CO)O1
→ 4.7[16.7 µM] | -5.7
> O=C(C[C@@H]1CC[C@@H](NC(=O)Cc2cccnc2)[C@H](CO)O1)NCc1ccc2c(c1)OCO2
→ 22.6[16.7 µM] | -9.6
> CC(C)NC(=O)N(C)C[C@@H]1Oc2c(NS(C)(=O)=O)cccc2C(=O)N([C@H](C)CO)C[C@H]1C
→ -11.7[16.7 µM] | -11.9
> COc1ccc(NC(=O)Nc2ccc3c(c2)C(=O)N([C@@H](C)CO)C[C@H](C)[C@H](CN(C)S(=O)(=O)c2cn(C)cn2)OCCCC[C@@H](C)O3)cc1
→ -8.8[16.7 µM] | 13.7
> Cc1noc(C)c1S(=O)(=O)Nc1ccc2c(c1)C(=O)N([C@H](C)CO)C[C@H](C)[C@@H](CN(C)C(=O)Nc1ccc3c(c1)OCO3)OCCCC[C@H](C)O2
→ -24.6[16.7 µM] | 4.8
> C[C@@H]1CN([C@@H](C)CO)C(=O)c2cc(-c3cccnc3)cnc2O[C@@H]1CN(C)C(=O)Nc1ccc(C(F)(F)F)cc1
→ -7.4[16.7 µM] | 18.2
